Compound activity: PubChem, National Center for Advancing Translational Sciences (NCATS)
HTT promoter inh: HTT promoter inhibition | HEK293 HTT promoter firefly luciferase reporter (activity 0% = vehicle and -100% = no light), 24 h | Potency, µM (titrated, usually from 57.5 µM), without a hit: top-dose activity change, negative = inhibition, usual class: inhibitors | actives 0.93% (n = 48,000); active means well fitted inhibition curve with a large enough effect; inconclusive means small, poorly fitted or top-dose-only effect; inactive means no such curve, though single readings can be large or run the other way; further: nearly all actives have a fitted effect of over 50% in size
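HEK293 Fluc reporter, 2,500 cells/well, 24 h pre-culture; cpds up to 57.5 uM final, 24 h 37 degrees C; Dual-Glo, 10 min RT; normalized vehicle = 0%, zero RLU = -100%.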
PMP22 txn prim: modulates PMP22 transcription in S16 Schwann cells; S16 Pmp22-F2sN Schwann cells (luciferase reporters placed in the Pmp22 gene), FLuc/NLuc coincidence luminescence, 24 h; Potency, µM (highest dose often 57.5 µM), without a hit: top-dose activity change, negative = inhibition, actives largely listed as inhibitors; actives 2% (n = 43,000); active = clear falling dose curves in both reporters; inconclusive = both reporters move, but less clearly or upward; inactive = either reporter flat; the % is the NLuc reporter signal; further: on the % scale 0 is the no-effect control and ±100 the full control effect; some results filed as inactive show a strong effect at the top dose
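Transcriptional readout in edited S16(c9) cells: two luciferases reported from the Pmp22 locus, measured in turn after 24 h compound incubation.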
An asterisk follows results filed as active; ? = inconclusive; · = no result given; [ ] = dose if it differs, or a comment. Potency means the concentration at half of the fitted maximal effect.

SMILES | HTT promoter inh | PMP22 txn prim
COC(=O)c1ccc(Cn2c(=O)cc(C)c3c(C)nn(C)c32)cc1 | 0.0% | -20.9%
COc1ccc(S(=O)(=O)NCC(c2ccco2)N2CCOCC2)cc1C (centres undefined) | -21.0% | -7.9%
COC(=O)c1ccccc1NC(=O)CSc1nc2ccsc2c(=O)n1CCC(C)C | -3.4% | -15.8%
Cc1cccc(CCNC(=O)c2ccc3c(c2)nc2n3CCC(C)C2)c1 (centres undefined) | 4.1% | 0.7%
CCOc1ccc(N2CC(c3nc4ccccc4n3CCCOc3ccccc3OC)CC2=O)cc1 (centres undefined) | -28.4% | ?
COc1ccccc1CNc1ncnc2c1c(-c1ccccc1)cn2-c1cccc(C)c1 | ? | ?
Cc1cccc(N(C)S(=O)(=O)c2cc(-c3cnc(C4CC4)o3)ccc2C)c1 | ? | ?
Cc1cccc(-n2cc(-c3ccccc3)c3c(N4CCC(C)CC4)ncnc32)c1 | -21.9% | 2.6%
COc1ccc(CNc2ncnc3c2cnn3-c2ccc(Cl)cc2)cc1 | -11.8% | -22.2%
CNC(=O)C1CCN(C(=O)N2CC(C)Oc3ccc(Cl)cc32)CC1 (centres undefined) | -2.6% | 12.3%
O=c1[nH]c(=O)n([C@H]2C[C@H](O)[C@@H](CO)O2)cc1Br | 15.3% | ·
NC(=O)c1cc[n+](CC2=C(C(=O)[O-])N3C(=O)[C@@H](NC(=O)Cc4cccs4)[C@H]3SC2)cc1 | 7.4% | ·
Cc1ccc(CCNC(=O)c2ccc3c(c2)N(Cc2cc(C)ccc2C)C(=O)c2ccccc2S3=O)cc1 (centres undefined) | -18.1% | -11.1%
CCOc1ccccc1CNS(=O)(=O)c1ccc2[nH]c(=O)ccc2c1 | -21.9% | -12.0%
Cc1ccc(N(CC(=O)Nc2ccc(C)c(F)c2)S(=O)(=O)c2c(C)n[nH]c2C)cc1 | -25.5% | ?
CCOc1ccc(CNC(=O)CCCn2c(=O)c3cccn3c3ccccc32)cc1 | 3.0% | -29.6%
Cc1cccc(NC(=O)CSc2nc3c(sc4ccccc43)c(=O)n2CCCC(=O)NC2CCCC2)c1 | -1.7% | -28.5%
Cc1ccccc1-c1nc(CS(=O)(=O)CC(=O)N2CCN(c3ccccc3)CC2)c(C)o1 | -26.3% | -21.3%
CN(C1CCc2c(c3ccccc3n2CC(=O)O)C1)S(=O)(=O)c1ccc(F)cc1 (centres undefined) | 4.5% | ·
CCn1c(=O)cc(SCC(=O)NCCc2cc(OC)ccc2OC)c2ccccc21 | -5.4% | -27.6%
COc1ccc(NC(=O)Cn2ccn(-c3ccc(F)c(F)c3)c(=O)c2=O)cc1Cl | 2.0% | -2.7%
CCOc1ccc(N2CC(NC(=O)c3cccs3)CC2=O)cc1 (centres undefined) | 3.1% | 21.8%
Cc1ccc(CSc2cn(CC(=O)N3CCCCCC3)c3ccccc23)cc1 | -14.3% | -72.8%
Cc1ccc(Cl)cc1N1CCN(C(=O)CN2C(=O)COc3ccc(S(=O)(=O)N4CCOCC4)cc32)CC1 | -16.6% | ?
CCOC(=O)c1[nH]c(C)c(CCC(=O)NCc2ccccc2Cl)c1C | -18.7% | 4.3%
CCS(=O)(=O)c1ncc(Cl)c(C(=O)Nc2ccc(S(=O)(=O)N(C)c3ccccc3)cc2)n1 | ? | 1µM*
COc1cccc(Cn2c(=O)n(-c3cccc(Cl)c3)c(=O)c3c4c(sc32)CN(C(C)=O)CC4)c1 | -37.8% | ?
CCN1CCN(c2ncc3c(n2)CCN(Cc2ccc(OC(C)C)cc2)C3)CC1 | -20.5% | -22.8%
O=C(CSc1cn(CC(=O)N2CCCCC2)c2ccccc12)NCc1ccccc1Cl | -21.2% | -28.5%
COc1cc(NC(=O)CCc2c(C)nc3c(-c4ccc(F)cc4)c(C)nn3c2C)cc(OC)c1OC | -2.0% | -0.7%
Cc1ccc(-c2nnc(Nc3cccc(Br)c3)c3ccccc23)cc1S(=O)(=O)NCC1CCCO1 (centres undefined) | ? | -15.7%
CCc1ccc(CN2C(=O)c3ccccc3C2C(=O)NCCc2ccc(OC)c(OC)c2)cc1 (centres undefined) | -14.5% | -15.6%
COc1ccc(OC)c(S(=O)(=O)NCCc2csc(-c3cccc(F)c3)n2)c1 | ? | ?
Cc1cccc(N2CCN(C(=O)C3CCN(S(=O)(=O)c4c(C)noc4C)CC3)CC2C)c1 (centres undefined) | ? | ?
Cc1ccc(-n2c(=O)c3sc4ccccc4c3n(CC(=O)NC3CCCC3)c2=O)cc1C | -21.2% | ?
CCS(=O)(=O)N1CC(=O)N(c2cccc(C)c2C)C(C)(C(=O)NC2CCCCCC2)C1 (centres undefined) | 7.9% | -12.8%
C[C@@H](c1ncncc1F)C(O)(Cn1cncn1)c1ccc(F)cc1F (some centres undefined) | 6.0% | ·
CCOC(=O)c1c(NC(=O)/C(C#N)=C/c2ccccc2)sc2c1CCC2 | -6.9% | -4.8%
CCN(CC)CCOC(=O)c1ccc(NC(=O)c2nn(C)c3c2COc2ccccc2-3)cc1 | 29.6% | ?
O=C(C1CCCN(S(=O)(=O)c2cccs2)C1)N1CCN(c2cccc(Cl)c2)CC1 (centres undefined) | ? | ?
O=C(Cn1ncc2c([nH]c3ccccc32)c1=O)NCCCN1CCN(c2ccc(F)cc2)CC1 | -6.7% | ?
Cc1ccc(Cc2nc3ccccc3nc2SCC(=O)NCc2ccccc2Cl)cc1 | -1.1% | ?
CCOc1ccc(C(c2c(O)cc(C)n(CCOC)c2=O)N2CCN(c3ccc(F)cc3)CC2)cc1 (centres undefined) | -7.8% | -3.6%
Cc1cccc(-n2nnc(-c3nc(-c4cccs4)no3)c2N)c1C | 103.5%[activator] | 4.6%
COc1cc(NS(=O)(=O)c2ccc(NC(=O)C(C)Oc3ccc(Cl)cc3Cl)cc2)nc(OC)n1 (centres undefined) | -21.8% | -5.0%
Cc1ccc(NC(=O)CCS(=O)(=O)c2cccc3nonc23)c(C)c1 | -8.0% | -33.2%
O=C(CCCCCn1c(=O)[nH]c2ccccc2c1=O)NCc1cccc(Cl)c1 | 14.7% | -4.8%
COc1cc(NC(=O)CCc2c(C)nc3c4c(C)cc(C)nc4nn3c2C)cc(OC)c1 | 0.0% | 5.9%
CCSc1ccccc1C(=O)Nc1ccc(-c2nc3ccccc3s2)c(O)c1 | 29.9% | -19.9%
COc1ccc(N2CC(C(=O)Nc3ccc(NC(C)=O)cc3)CC2=O)cc1 (centres undefined) | 2.0% | 23.5%

Six compounds drawn at random from those above, as already listed:
SMILES | HTT promoter inh | PMP22 txn prim
Cc1ccc(Cc2nc3ccccc3nc2SCC(=O)NCc2ccccc2Cl)cc1 | -1.1% | ?
Cc1ccc(NC(=O)CCS(=O)(=O)c2cccc3nonc23)c(C)c1 | -8.0% | -33.2%
COc1ccc(N2CC(C(=O)Nc3ccc(NC(C)=O)cc3)CC2=O)cc1 (centres undefined) | 2.0% | 23.5%
Cc1cccc(-n2nnc(-c3nc(-c4cccs4)no3)c2N)c1C | 103.5%[activator] | 4.6%
CCOc1ccc(C(c2c(O)cc(C)n(CCOC)c2=O)N2CCN(c3ccc(F)cc3)CC2)cc1 (centres undefined) | -7.8% | -3.6%
O=C(Cn1ncc2c([nH]c3ccccc32)c1=O)NCCCN1CCN(c2ccc(F)cc2)CC1 | -6.7% | ?

Following part:
SMILES | HTT promoter inh | PMP22 txn prim
CCOc1ccc(S(=O)(=O)c2cn(CC)c3ccc(F)cc3c2=O)cc1 | -28.7% | 54.1%
Cc1ccc(Oc2nc3c(c(=O)n(Cc4ccccc4Cl)c(=O)n3C)n2C)cc1C | 0.2% | ?
Cc1ccc(C)c(NC(=O)c2ccc(CN3CC(=O)N4CCCCC4C3=O)cc2)c1 (centres undefined) | -25.8% | -29.3%
Nc1ccc(C(=O)Nc2cccc(-c3nc(N4CCOCC4)c4oc5ncccc5c4n3)c2)cn1 | ? | ·
CCOc1ccc(NC(=O)c2cc(S(=O)(=O)NC3CCCC3)ccc2F)cc1 | ? | ?
CCOc1ccccc1NC(=O)c1nn(-c2ccc(OC)cc2)c(=O)c2c1c1ccccc1n2C | -17.4% | 1.2%
CCCCC12CN3CC(C)(CN(C1)C3c1ccc(OCc3ccccc3)cc1)C2=O (centres undefined) | -16.8% | ?
Cc1ccc(N(Cc2cc3ccccc3[nH]c2=O)C(=O)c2cccc(Cl)c2)cc1 | -23.7% | -11.7%
CC(=O)Nc1ccc(NC(=O)CCSCCc2ccccn2)cc1 | -5.9% | 1.5%
COc1ccc(C(=O)Nc2cccc(OCc3cc(=O)n4c5c(sc4n3)CCCC5)c2)cc1 | -13.5% | -13.0%
COc1cc(C2CC(=O)N(c3ccccc3)C3=C2C(=O)OC3)cc(OC)c1OC (centres undefined) | 0.0% | -6.3%
Cc1cc(=O)[nH]c2nnc(SCc3ccc(Cl)cc3)n12 | -15.2% | -10.9%
O=C(Nc1cccc(C(=O)OCc2cc(=O)n3c4c(sc3n2)CCCC4)c1)c1ccc(Cl)cc1 | ? | ?
CC(C)(C)c1ccc(C(=O)Nc2cc(-c3ccccc3)nn2-c2ccccc2)cc1 | -9.9% | -10.2%
COCCCNC(=O)c1oc2c(c1C)-c1nn(Cc3ccccc3Cl)cc1CC2 | ? | ?
COc1ccc(Cl)cc1C(=O)NCCS(=O)(=O)N1CCN(c2ccccc2OC)CC1 | ? | ?
CCOc1ccccc1NC(=O)CSC1=Nc2ccccc2C2=NC(CC(=O)NC3CCCCC3)C(=O)N12 (centres undefined) | -14.7% | ?
O=C(COc1ccccc1F)Nc1ccc(OCc2cc(=O)n3ccccc3n2)cc1 | 17.8% | -19.0%
COc1cc(Cl)c(C)cc1NC(=O)Cn1ncc2c([nH]c3ccccc32)c1=O | 0.1% | ?
Cn1nc(C(=O)NCc2ccccc2)c2c1-c1ccccc1SC2 | 12.6% | -35.5%
O=C(NCc1ccco1)c1c[nH]c2ccc(S(=O)(=O)Nc3ccc(F)cc3F)cc2c1=O | -16.2% | -4.0%
Cc1ccc(Cl)cc1N1CCN(Cc2nnc(-c3ccc4c(c3)OCO4)o2)CC1 | -32.2% | -27.6%
Cc1ccc(C(CC(=O)Nc2cc(C)cc(C)c2)N2Cc3ccccc3C2=O)cc1 (centres undefined) | ? | ?
Cn1cccc1-c1cc2n(n1)CCC(=O)N2CC(=O)Nc1ccc(F)cc1Cl | 0.0% | -13.6%
Cc1ccc(C2c3[nH]c4ccccc4c3CCN2C(=O)Nc2ccc(C)c(C)c2)cc1 (centres undefined) | ? | 7.7%
CCOC(=O)c1sc2nc(C)n(CC(=O)Nc3cccc(Cl)c3)c(=O)c2c1C | -5.7% | 0.8%
Cc1cccc(NC(=O)Cn2nnc(-c3nc(-c4ccncc4)no3)c2N)c1 | 11.1% | -74.5%
CCCNc1nc(NCc2ccccc2OC)c2cnn(C)c2n1 | ? | ?
Cc1ccc(N2CCN(C(=O)c3c(C)oc4ncn(C)c(=O)c34)CC2)c(C)c1 | 11.8% | -7.1%
Cc1ccc2c(c1)cc1c(=O)n(Cc3cccc(Cl)c3)nc(C)n12 | -8.7% | 4.3%
CC1CCN(c2nc3c(-c4cccc(Br)c4)nnn3c3ccccc23)CC1 | -13.2% | -2.4%
CCOC(=O)c1cccc(NC(=O)CCC(=O)N2CC(C)Oc3ccc(C)cc32)c1 (centres undefined) | ? | 9.4%
CCCCSCCCNC(=O)CN1C(=O)COc2ccc(S(=O)(=O)N3CCCC3)cc21 | -20.8% | -20.5%
CCCCCCOC(=O)NC(=N)c1ccc(NCc2nc3cc(C(=O)N(CCC(=O)OCC)c4ccccn4)ccc3n2C)cc1 | -20.2% | ·
O=C(NCCc1csc(-c2cccc(F)c2)n1)c1ccco1 | -13.0% | ?
COc1ccc2sc(N(Cc3cccnc3)C(=O)c3ccc4c(c3)OCCO4)nc2c1 | 11.2µM* | ?
COc1cc(C)ccc1OCCSc1nnc(-c2ccc(C)cc2)o1 | 9.9% | -4.5%
CCOc1ccc(-c2csc(-c3nc(-c4ccc(Br)s4)cs3)n2)cc1 | -13.4% | -17.5%
COc1cc(NC(=O)CN2Cc3ccccc3C2=O)cc(OC)c1OC | -8.8% | 9.2%
COc1ccccc1OCc1ccc(C(=O)Nc2ccc(C)c(C)c2)o1 | -2.7% | -7.9%
CCOc1ccc(NC(=O)C2CCCN(c3cnccn3)C2)cc1 (centres undefined) | 12.2% | -9.4%
CC(C)(C)OC(=O)N1CCC(c2c(C(=O)N3CCCCC3)cnn2-c2cccc(F)c2)CC1 | -11.3% | -31.2%
COc1cc(NC(=O)Cn2nc(C(F)(F)F)c3c2CCC3)cc(OC)c1OC | ? | ?
COc1ccc(N(Cc2cccs2)C(=O)COc2cccc(Cl)c2)cc1 | -29.3% | -38.3%
O=C(CCc1nc(-c2cccs2)no1)Nc1ccc([N+](=O)[O-])cc1 | -22.0% | -10.7%
CC1CCCCN1Cc1c(O)ccc2c(=O)c(-c3ccc(Cl)cc3)c(C(F)(F)F)oc12 (centres undefined) | -18.6% | 8.0%
Cc1ccc(-n2nnnc2CNC(=O)C2CC(=O)N(c3ccccc3)C2)cc1C (centres undefined) | 1.4% | 0.5%
CCOc1cccc(C2c3c(oc4ccc(F)cc4c3=O)C(=O)N2CCOC)c1 (centres undefined) | -1.0% | -12.6%
COc1ccc(CCNC(=O)CCc2cn(Cc3ccc(F)cc3)c3ccccc23)cc1OC | ? | ?
